RmlC RmlD mix: RmlC and RmlD coupled enzyme inhibitors, primary screen, biochemical, 384-well, compound mixtures, retest. AID 1532, 2009. hit rate 0.39% among 110,000. RmlC/RmlD coupled enzyme inhibition, 384-well mixture HTS. inhibition, % at 5.5 µM; in the data active = inhibition above about 30%, passing the limit was not always enough; only retested compounds are shown here; note: strong numbers were not always called active
RmlC RmlD mix retest: second read-out of RmlC RmlD mix, no call of its own (marks repeat the call); inhibition, %; measured here: mean retest inhibition;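 single compounds in two wells; values far above 100% likely come from compound fluorescence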
The depositor's hits bear a star; x = not tested or not shown. An excerpt; the hit share may differ from the screen's.

The first 18 records, ahead of the listing:
(1) CCCCN(CCCC)S(=O)(=O)c1ccc(NC(=O)c2cccs2)cc1
- RmlC RmlD mix: 41.9
- RmlC RmlD mix retest: -9.7
(2) CC1(C)Cc2ccccc2-c2nc(NCCO)n(-c3ccccc3)c(=O)c21
- RmlC RmlD mix: 51.0*
- RmlC RmlD mix retest: 48.8*
(3) Cc1cccc(C(=O)Nc2cc(OCc3cccc(F)c3)c(Cl)cc2Cl)c1
- RmlC RmlD mix: 91.2
- RmlC RmlD mix retest: 9.4
(4) CC(C)CC(=O)Nc1cccc(C(=O)Nc2ccccc2C(=O)O)c1
- RmlC RmlD mix: 63.7
- RmlC RmlD mix retest: -6.2
(5) Cc1n[nH]c(=S)n(/N=C/c2ccccn2)c1=O
- RmlC RmlD mix: 45.4
- RmlC RmlD mix retest: -10.2
(6) O=C(NCc1ccncc1)Nc1ccc(F)cc1
- RmlC RmlD mix: 37.5
- RmlC RmlD mix retest: -6.7
(7) COc1cc2[nH]c(=S)nc(NCC3CCCO3)c2cc1OC (stereo not drawn)
- RmlC RmlD mix: 34.5
- RmlC RmlD mix retest: 0.9
(8) COC(=O)c1ccc(OCC2c3cc(OC)c(OC)cc3CCN2C(=O)C2CC2)cc1 (stereo not drawn)
- RmlC RmlD mix: 110.5
- RmlC RmlD mix retest: -0.2
(9) Cc1cccn2c(=O)c3cc(C(=O)NCCc4ccccc4)c(=N)n(CCCn4ccnc4)c3nc12
- RmlC RmlD mix: 37.5*
- RmlC RmlD mix retest: 89.0*
(10) CCCC1OC23CCCCC2C(C#N)(C(=N)O3)C1(C#N)C#N (stereo not drawn)
- RmlC RmlD mix: 104.1
- RmlC RmlD mix retest: 14.6
(11) CCOC(=O)c1cccc(NC(=O)Cn2c(CC(=O)N3CCCC3)nc3ccccc32)c1
- RmlC RmlD mix: 67.1
- RmlC RmlD mix retest: 1.2
(12) COC(=O)c1c(NC(=O)CN2CCN(c3ccccc3OC)CC2)c2c(C)cccc2n1C
- RmlC RmlD mix: 36.6
- RmlC RmlD mix retest: -14.7
(13) O=C(Nc1ccc(Oc2ccccc2)cc1)C1CCN(c2c3c(nc4ncnn24)CCC3)CC1
- RmlC RmlD mix: 55.2
- RmlC RmlD mix retest: -10.6
(14) C/C(=N\NS(=O)(=O)c1ccc(Br)cc1)c1cccs1
- RmlC RmlD mix: 105.1
- RmlC RmlD mix retest: -2.4
(15) CCO/N=C(/C)c1c(O)c(C)c(-c2ccccc2)n(-c2ccccc2)c1=O
- RmlC RmlD mix: 74.8
- RmlC RmlD mix retest: 0.5
(16) Cc1cc(C)c2c(n1)nn1c(NCCN3CCOCC3)cc(C)nc21
- RmlC RmlD mix: 57.8*
- RmlC RmlD mix retest: 123.3*
(17) O=S(=O)(Nc1nc2ccccc2nc1NCc1ccco1)c1ccccc1
- RmlC RmlD mix: 38.7
- RmlC RmlD mix retest: -3.1
(18) CCCn1nnc(NC(=O)c2sc3ccccc3c2Cl)n1
- RmlC RmlD mix: 121.0
- RmlC RmlD mix retest: 1.1

The whole of this part, previewed entries included:
(1) CCCCN(CCCC)S(=O)(=O)c1ccc(NC(=O)c2cccs2)cc1
- RmlC RmlD mix: 41.9
- RmlC RmlD mix retest: -9.7
(2) CC1(C)Cc2ccccc2-c2nc(NCCO)n(-c3ccccc3)c(=O)c21
- RmlC RmlD mix: 51.0*
- RmlC RmlD mix retest: 48.8*
(3) Cc1cccc(C(=O)Nc2cc(OCc3cccc(F)c3)c(Cl)cc2Cl)c1
- RmlC RmlD mix: 91.2
- RmlC RmlD mix retest: 9.4
(4) CC(C)CC(=O)Nc1cccc(C(=O)Nc2ccccc2C(=O)O)c1
- RmlC RmlD mix: 63.7
- RmlC RmlD mix retest: -6.2
(5) Cc1n[nH]c(=S)n(/N=C/c2ccccn2)c1=O
- RmlC RmlD mix: 45.4
- RmlC RmlD mix retest: -10.2
(6) O=C(NCc1ccncc1)Nc1ccc(F)cc1
- RmlC RmlD mix: 37.5
- RmlC RmlD mix retest: -6.7
(7) COc1cc2[nH]c(=S)nc(NCC3CCCO3)c2cc1OC (stereo not drawn)
- RmlC RmlD mix: 34.5
- RmlC RmlD mix retest: 0.9
(8) COC(=O)c1ccc(OCC2c3cc(OC)c(OC)cc3CCN2C(=O)C2CC2)cc1 (stereo not drawn)
- RmlC RmlD mix: 110.5
- RmlC RmlD mix retest: -0.2
(9) Cc1cccn2c(=O)c3cc(C(=O)NCCc4ccccc4)c(=N)n(CCCn4ccnc4)c3nc12
- RmlC RmlD mix: 37.5*
- RmlC RmlD mix retest: 89.0*
(10) CCCC1OC23CCCCC2C(C#N)(C(=N)O3)C1(C#N)C#N (stereo not drawn)
- RmlC RmlD mix: 104.1
- RmlC RmlD mix retest: 14.6
(11) CCOC(=O)c1cccc(NC(=O)Cn2c(CC(=O)N3CCCC3)nc3ccccc32)c1
- RmlC RmlD mix: 67.1
- RmlC RmlD mix retest: 1.2
(12) COC(=O)c1c(NC(=O)CN2CCN(c3ccccc3OC)CC2)c2c(C)cccc2n1C
- RmlC RmlD mix: 36.6
- RmlC RmlD mix retest: -14.7
(13) O=C(Nc1ccc(Oc2ccccc2)cc1)C1CCN(c2c3c(nc4ncnn24)CCC3)CC1
- RmlC RmlD mix: 55.2
- RmlC RmlD mix retest: -10.6
(14) C/C(=N\NS(=O)(=O)c1ccc(Br)cc1)c1cccs1
- RmlC RmlD mix: 105.1
- RmlC RmlD mix retest: -2.4
(15) CCO/N=C(/C)c1c(O)c(C)c(-c2ccccc2)n(-c2ccccc2)c1=O
- RmlC RmlD mix: 74.8
- RmlC RmlD mix retest: 0.5

(16) Cc1cc(C)c2c(n1)nn1c(NCCN3CCOCC3)cc(C)nc21
- RmlC RmlD mix: 57.8*
- RmlC RmlD mix retest: 123.3*
(17) O=S(=O)(Nc1nc2ccccc2nc1NCc1ccco1)c1ccccc1
- RmlC RmlD mix: 38.7
- RmlC RmlD mix retest: -3.1
(18) CCCn1nnc(NC(=O)c2sc3ccccc3c2Cl)n1
- RmlC RmlD mix: 121.0
- RmlC RmlD mix retest: 1.1
(19) CCC(=O)N1N=C(c2ccc(NS(C)(=O)=O)cc2)CC1c1ccc(C)cc1 (stereo not drawn)
- RmlC RmlD mix: 130.9
- RmlC RmlD mix retest: 58.1
(20) Cc1ccc(-c2csc3ncn(-n4c(C)ccc4C)c(=O)c23)o1
- RmlC RmlD mix: 43.2
- RmlC RmlD mix retest: -2.3
(21) CCN(CC)CCCNC1CCS(=O)(=O)C1 (stereo not drawn)
- RmlC RmlD mix: 104.0
- RmlC RmlD mix retest: -7.4
(22) CC(C)c1ccc(C(=O)N(c2ccccn2)C(C)c2ccco2)cc1 (stereo not drawn)
- RmlC RmlD mix: 112.5
- RmlC RmlD mix retest: -14.7
(23) Cc1cc(N2CCN(c3cccc(C)c3C)CC2)nc(-c2ccccc2)n1
- RmlC RmlD mix: 39.7
- RmlC RmlD mix retest: -13.0
(24) CCOC(=O)c1c(Nc2ccccc2)sc(/C=C2\C=Nc3ccccc32)c1O
- RmlC RmlD mix: 45.8
- RmlC RmlD mix retest: -0.3
(25) Cc1c(C)n(C(=O)CSc2ncn[nH]2)c2ccccc12
- RmlC RmlD mix: 139.6
- RmlC RmlD mix retest: 8.2
(26) O=C(CSc1nnc(-c2cccs2)n1-c1ccccc1)N1CCCc2ccccc21
- RmlC RmlD mix: 40.7
- RmlC RmlD mix retest: -2.8
(27) CCOC(=O)c1cc2cc3ccccc3cc2[nH]1
- RmlC RmlD mix: 124.6*
- RmlC RmlD mix retest: x
(28) Cc1nn(-c2ccccc2)c2[nH]c(=O)c(CNc3ccc(N4CCOCC4)cc3)cc12
- RmlC RmlD mix: 97.2
- RmlC RmlD mix retest: -6.4
(29) CS(=O)(=O)N1CCCC(C(=O)N2CCOCC2)C1 (stereo not drawn)
- RmlC RmlD mix: 35.6
- RmlC RmlD mix retest: 4.6
(30) CC(C)c1cc(NCC2CCCO2)n2c(nc3ccccc32)c1C#N (stereo not drawn)
- RmlC RmlD mix: 54.9
- RmlC RmlD mix retest: -85.8

(31) CCN(CC)CCNc1nc(-c2ccccc2)nnc1C(F)(F)F
- RmlC RmlD mix: 58.1
- RmlC RmlD mix retest: -10.8
(32) Cc1ccc(C)n1-n1c(C)nc2scc(-c3ccccc3)c2c1=O
- RmlC RmlD mix: 86.0
- RmlC RmlD mix retest: -3.7
(33) COC(=O)Cc1c(C)c2ccc(OCc3nn[nH]n3)cc2oc1=O
- RmlC RmlD mix: 30.8
- RmlC RmlD mix retest: 42.0
(34) CC(C)(C)c1cc(CCC(=O)N2CCNCC2)c(C(C)(C)C)cc1O
- RmlC RmlD mix: 107.6
- RmlC RmlD mix retest: -11.1
(35) O=C(CSc1ccc(Cl)cc1)N1CCN(c2ccc(Cl)cc2[N+](=O)[O-])CC1
- RmlC RmlD mix: 64.5
- RmlC RmlD mix retest: -2.5
(36) CCc1nnc(NC(=O)CSc2nnc(CSc3nc(C)cc(C)n3)n2C)s1
- RmlC RmlD mix: 102.9
- RmlC RmlD mix retest: 1.6
(37) COCCNC(=O)C(=O)c1cc(C)n(-c2ccc([N+](=O)[O-])cc2)c1C
- RmlC RmlD mix: 30.4
- RmlC RmlD mix retest: 4.8
(38) CCc1cc(C(=O)O)c(NC(=O)C(c2ccccc2)c2ccccc2)s1
- RmlC RmlD mix: 38.9
- RmlC RmlD mix retest: -4.8
(39) COCCCNC(=O)c1ccc2c(=O)n(Cc3ccc4c(c3)OCO4)c(=S)[nH]c2c1
- RmlC RmlD mix: 114.1
- RmlC RmlD mix retest: -2.5
(40) COC(=O)c1c(NC(=O)CN2CCCC(C)C2)c2c(C)cccc2n1C (stereo not drawn)
- RmlC RmlD mix: 79.7
- RmlC RmlD mix retest: -13.5
(41) COc1cccc2cc(C(=O)n3ccc(C)n3)c(=O)oc12
- RmlC RmlD mix: 49.6
- RmlC RmlD mix retest: 9.0
(42) COc1ccc(NC(=O)C2CCN(C(=O)c3ccccc3)CC2)c(OC)c1
- RmlC RmlD mix: 35.6
- RmlC RmlD mix retest: -3.2
(43) CCOC(=O)C1CCN(c2nc3ccccc3nc2C(C#N)C(=O)OC(C)C)CC1 (stereo not drawn)
- RmlC RmlD mix: 37.5
- RmlC RmlD mix retest: 5.8
(44) Cc1noc(C)c1COC(=O)c1cc(=O)[nH]c2ccccc12
- RmlC RmlD mix: 49.6
- RmlC RmlD mix retest: 17.7
(45) O=C(COc1ccc2ccccc2c1)N1c2ccccc2Sc2ccccc21
- RmlC RmlD mix: 48.0
- RmlC RmlD mix retest: -7.4

(46) Cc1ccc(OCC(O)CN2CCN(CC(O)COc3ccc(C)cc3)CC2)cc1 (stereo not drawn)
- RmlC RmlD mix: 86.4
- RmlC RmlD mix retest: -8.0
(47) CCC(C)NC(=O)Cn1nc([N+](=O)[O-])c(Cl)c1C (stereo not drawn)
- RmlC RmlD mix: 85.4
- RmlC RmlD mix retest: -2.3
(48) Nc1c(NCCCN2CCOCC2)c2ccccc2oc1=O
- RmlC RmlD mix: 42.3
- RmlC RmlD mix retest: -18.4
(49) CCC(C)NC(=O)c1csc2c1CCCCC2 (stereo not drawn)
- RmlC RmlD mix: 54.9
- RmlC RmlD mix retest: -11.1
(50) O=C(NC1CC1)c1ccc(-c2nc3ccccc3s2)s1
- RmlC RmlD mix: 31.4
- RmlC RmlD mix retest: -6.3
(51) Cc1cc(O)c(NC(=S)NC(=O)c2ccc(-c3ccc(Cl)cc3)o2)cc1C
- RmlC RmlD mix: 171.4
- RmlC RmlD mix retest: 12.6
(52) Cc1ccc(CCNC(=O)C2CCN(C(=O)N(C)C)CC2)cc1
- RmlC RmlD mix: 38.0
- RmlC RmlD mix retest: 5.1
(53) COC(=O)COc1ccc(S(=O)(=O)N2CCN(c3ccc(F)cc3)CC2)cc1
- RmlC RmlD mix: 68.6
- RmlC RmlD mix retest: -0.6
(54) COCCN1C(=O)C(=O)/C(=C(/O)c2ccc3c(c2)OCCO3)C1c1ccc(C(=O)OC)cc1 (stereo not drawn)
- RmlC RmlD mix: 64.2
- RmlC RmlD mix retest: -8.1
(55) O=C(Nc1ccc2oc(-c3ccc4ccccc4c3)nc2c1)c1ccc2c(c1)OCCO2
- RmlC RmlD mix: 36.4*
- RmlC RmlD mix retest: 158.8*
(56) CC1=C(C(=O)Nc2ccccc2)C(c2ccco2)NC(=O)N1 (stereo not drawn)
- RmlC RmlD mix: 34.0
- RmlC RmlD mix retest: -6.1
(57) Cc1cc(C)c(S(=O)(=O)ON2C(=O)c3ccccc3C2=O)cc1C
- RmlC RmlD mix: 146.4*
- RmlC RmlD mix retest: x
(58) O=C(CCCOc1ccccc1)N1CCN(c2ccccn2)CC1
- RmlC RmlD mix: 131.2
- RmlC RmlD mix retest: -16.3
(59) COc1cccc(-n2nnnc2SCC(=O)NCCc2ccccc2)c1
- RmlC RmlD mix: 34.9
- RmlC RmlD mix retest: -8.0
(60) O=C(/C=C/c1ccco1)Nc1ccc(Oc2ccccc2)cc1
- RmlC RmlD mix: 154.0
- RmlC RmlD mix retest: -0.5

(61) O=C1CCC(=O)N1c1nc2nc(-c3ccccc3)cc(-c3ccccc3)n2n1
- RmlC RmlD mix: 103.4*
- RmlC RmlD mix retest: 116.7*
(62) COc1ccc2[nH]cc(C(=O)CN(C)C)c2c1
- RmlC RmlD mix: 57.4
- RmlC RmlD mix retest: -3.9
(63) COC(=O)c1c(C)cc(OC(C)=O)c(C)c1OC(C)=O
- RmlC RmlD mix: 40.5
- RmlC RmlD mix retest: -3.4
(64) S=C1NC(c2ccccc2)N2C(=S)NC(c3ccccc3)N12 (stereo not drawn)
- RmlC RmlD mix: 38.0
- RmlC RmlD mix retest: -5.2

Screening data from PubChem BioAssay.
